Bioassay records (PubChem BioAssay)
Ab BasE inh – BasE siderophore biosynthesis inhibition; purified BasE, fluorescence polarization binding displacement; inhibition, % (concentration not given with the values); actives 0.1% (n = 84,000);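 active = both replicates above 25% with normal brightness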;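 note: 0% = negative plate control signal and 100% = positive plate control signal; stock transfer was 100 nL into about 30 µL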
LANA-nucl inh – inhibitors of KSHV LANA binding to nucleosomes; actives 0.3% (n = 51,000); AID 720717; FITC-LANA1-23 / chicken nucleosome fluorescence polarization; stronger effect = lower value; z-score (no concentration beside the values);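 active = both repeat wells score below -2 in polarization z-score versus plate sample wells, excluding overly bright wells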;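 note: 100 nL library stock added to about 30 µL; numbers are from one replicate; some results filed as inactive read as strong as hits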
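test system = FITC-LANA peptide and chicken nucleosomes | amount = 240 nM purified chicken nucleosomes (480 nM peptide binding sites), final | reagent = 50 nM FITC-LANA1-23 probe | medium = TEN-BT buffer, pH 7.5 | doses = single compound addition by pin transfer, 100 nL per well | timing = 10–45 min, room temperature | detection = fluorescence polarization | repeats = duplicate plates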
Starred values were filed as active, the others as inactive; nt = not tested or not shown; & = joins results of further samples; ! = not confirmed by another sample.

Results follow in this order: Ab BasE inh	LANA-nucl inh
> CCN(CC)S(=O)(=O)c1ccc(S(=O)(=O)Nc2cc(Cl)ccc2OC)cc1
  -2.7	nt
> Cc1n[nH]c(=O)c2c(NC(=O)COC(=O)/C=C/c3ccc4c(c3)OCO4)oc(C)c12
  -0.1	nt
> O=C(NC1CCCCC1)N1c2ccccc2CCc2ccccc21
  3.2	nt
> Oc1ccccc1CNC1CCCCC1
  0.9	0.66
> Cc1oc2ncn(C)c(=O)c2c1C(=O)N1CCc2ccccc21
  0.9	nt
> NC(N)=Nc1nc(-c2ccccc2)c2ccccc2n1
  -3.6	nt
> Cc1cc(N2CCOCC2)nc([S+]2CCCC2)n1
  -1.1	0.45
> O=C(Cc1cccc2ccccc12)Nc1ccc(-n2cnnn2)cc1
  -0.2	nt
> CN(C)S(=O)(=O)Nc1ccc(OCc2ccccc2)cc1
  0.4	-0.23
> NC(=O)c1ccccc1CCc1ccccc1
  0.1	-1
> CCCCC(=O)Nc1cc(OC)c(OC)cc1C(=O)O
  0.4	0.57
> CCOC(=O)c1cc(OC(=O)c2ccc(Cl)nc2)cc(C(=O)OCC)c1
  1.2	nt
> C(=N\n1c(-c2ccco2)csc1=NCCc1ccccc1)/c1ccco1
  -1.2	nt
> O=C1NC(c2ccc(Cl)cc2)=COc2ccccc21
  nt	0.32
> Cc1sc2nc3c4ccccc4c(NCCO)nn3c(=O)c2c1C
  0.6	nt
> COC(=O)c1nn(-c2ccccc2)c2oc(=O)cc(C)c12
  2.3	nt
> COC(=O)CN(c1cccc(C)c1)S(=O)(=O)c1ccccc1
  12	-0.3
> COC(=O)c1cccc(COC(=O)CCc2nc3ccccc3[nH]c2=O)c1
  1.2	0.0025
> COc1ccc(S(=O)(=O)N2CCCCC2)cc1-n1c(N)c(C#N)c2nc3ccccc3nc21
  -10	nt
> Cc1nnc(SCC(=O)N(CC(C)C)C2CCS(=O)(=O)C2)s1 (configuration not stated)
  -0.6	nt
> CC1=C(C(=O)O)N2C(=O)[C@@H](NC(=O)[C@H](N)c3ccccc3)[C@H]2SC1
  -3.2	0.99&0.031
> CN1C(=O)c2ccccc2C1O (configuration not stated)
  2.5	nt
> O=C(CN1C(=O)c2ccccc2C1=O)Nc1ccc(S(=O)(=O)NC2=NCCCCC2)cc1
  0.3	nt
> CNC(=O)NC(=O)CSc1cc(C)c2ccccc2n1
  -0.5	nt
> Cc1nonc1C(=O)N/N=C/C(C)C
  0.5	-1.1
> O=C(NC1CCCC1)C1CCCN(C2=NS(=O)(=O)c3ccccc32)C1 (configuration not stated)
  12	nt
> COc1ccc(N2CCN(C(=O)C(c3ccccc3)c3ccccc3)CC2)cc1
  0.9	nt
> CCc1nc2ccccc2n1CCO
  -0.8	-0.91
> O=C(NCC1CCCO1)Nc1ccccc1 (configuration not stated)
  -2.8	-0.39
> c1ccc(Cc2nn3cnnc3s2)cc1
  -1.2	1.9
> CCC1Nc2ccccc2-c2nnc(SC)nc2O1 (configuration not stated)
  2.2	nt
> Cc1cc(Cc2c(O)nc(SCc3ccccc3)[nH]c2=O)ccc1OC(C)C
  2.4	nt
> CCC(C)c1ccccc1NC(=O)C1CCCO1 (configuration not stated)
  -2.0	-1.1
> CCn1cc(CN(C)C(=S)Nc2ccc(S(=O)(=O)Nc3ncccn3)cc2)c(C)n1
  5.3	-0.17
> CCN(CC)C(=O)Oc1ccccc1
  1.5	0.21
> Cc1nc2c(cnn2C(C)C)cc1C(=O)O
  -0.8	nt
> C=CCNC(=O)c1ccc2c(=O)n(Cc3ccco3)c(=S)[nH]c2c1
  -0.5	0.92
> CC1CN(CC(=O)Nc2ccc3c(c2)CCC3)CC(C)O1 (configuration not stated)
  2.3	nt
> c1ccc(CNC2C3CC4CC(C3)CC2C4)nc1 (configuration not stated)
  1.5	0.16
> Cc1[nH]nc(N)c1C#N
  2.3	-0.83
> COC(=O)C1CCN(C(=O)C(C)(C)C)CC1
  0.1	-0.93
> CC(=O)Nc1ccc2c(c1)nc1n2CCN(C(C)c2ccccc2)C1 (configuration not stated)
  0.0	-0.013
> S=c1nccc(-c2csc(COc3ccccc3Cl)n2)[nH]1
  2.9	nt
> Cc1ccc(OC(=O)c2ccco2)c(-n2nc3ccccc3n2)c1
  0.9	-0.98
> CS(=O)(=O)N(CC(=O)Nc1ccc2c(c1)OCCO2)c1ccccc1
  0.6	-0.45
> O=c1cc(-c2ccccc2)nc(Cc2c(Cl)cccc2Cl)[nH]1
  3.1	nt
> Cc1ccccc1OCc1nnc(SCC(=O)Nc2sc(C)c(C)c2C#N)n1-c1ccccc1
  0.4	0.13
> O=C(O/N=C1/CCCc2occc21)c1ccccc1
  0.5	-0.13
> COc1ccc(-c2nc3cccc(C)n3c2NCc2ccco2)cc1OC
  -0.2	-0.82
> COC(=O)c1ccc(NC(=O)COC(=O)c2ccc3c(c2)OCCO3)cc1
  -0.8	nt

The list continues:
Results follow in this order: Ab BasE inh	LANA-nucl inh
> N#Cc1ccc(OC(C(F)(F)F)C(F)(F)F)cc1C#N
  1.3	0.27
> CCCCCCCCCCCCCCCCOCC(CO)OC(C)=O (configuration not stated)
  0.7	-0.22
> O=S(=O)(NNc1cnc2ccccc2n1)c1ccccc1C(F)(F)F
  1.2	-0.24
> COc1ccc2oc(C(=O)N3CCN(S(=O)(=O)c4ccc5c(c4)OCCO5)CC3)c(C)c2c1
  0.7	nt
> CC(=O)Nc1ccc(Nc2c3c(c(C#N)c4nc5ccccc5n24)CCCC3)cc1
  -0.8	nt
> O=C(c1cc(F)cc(F)c1)N1CC=C(c2ccccc2)CC1
  2.1	nt
> N#Cc1ccc(S(=O)(=O)NC2CCCCNC2=O)cc1 (configuration not stated)
  2.8	0.029
> O=C(NCC1CCCO1)Nc1c[nH]c2c(Cl)cccc2c1=O (configuration not stated)
  1.8	-0.74
> COc1ccc(OC)c(-c2cc(C(=O)NCCCn3ccnc3)no2)c1
  0.7	-0.36
> CCS(=O)(=O)c1ccc2oc(=S)n(CN(C)C3CCCCC3)c2c1
  -0.3	nt

Given as labelled records: part of the list above
SMILES: O=C(c1cc(F)cc(F)c1)N1CC=C(c2ccccc2)CC1
  Ab BasE inh: 2.1; LANA-nucl inh: nt
SMILES: N#Cc1ccc(S(=O)(=O)NC2CCCCNC2=O)cc1 (configuration not stated)
  Ab BasE inh: 2.8; LANA-nucl inh: 0.029
SMILES: O=C(NCC1CCCO1)Nc1c[nH]c2c(Cl)cccc2c1=O (configuration not stated)
  Ab BasE inh: 1.8; LANA-nucl inh: -0.74
SMILES: COc1ccc(OC)c(-c2cc(C(=O)NCCCn3ccnc3)no2)c1
  Ab BasE inh: 0.7; LANA-nucl inh: -0.36

(cont.)
Results follow in this order: Ab BasE inh	LANA-nucl inh
> O=S(=O)(c1ccc(Oc2ccc3ccccc3c2)nc1)N1CCOCC1
  1.6	nt
> O=C(NN=C1CCCC1)c1cc(-c2ccccc2)n[nH]1
  -1.9	0.064
> CCNC(=O)C(C)Oc1ccc(Cl)c(C)c1 (configuration not stated)
  -1.4	0.0065
> O=C(O)CSc1ccc2nnc(-c3cccnc3)n2n1
  5.2	0.35
> O=C(Nc1cnn(C23CC4CC(CC(C4)C2)C3)c1)c1cc(-c2ccccc2F)no1
  2.5	-0.97
> COC(F)(C(=O)N1CCOCC1)C(F)(F)F (configuration not stated)
  -1.2	-0.31
> COC(=O)/C(C#N)=C/c1cccc(OC)c1
  0.0	2.4
> CSc1sc(-c2ccn(C(=O)Nc3ccccc3)n2)c2c1C(=O)CC(C)(C)C2
  -2.3	nt
> CC(C)(C)OC(=O)N1CCc2nc(N3CCCCC3)ncc2C1
  -0.1	-0.37
> O=C(c1cc2c(=O)oc3ccccc3c2s1)N(Cc1cccs1)C1CCCC1
  2.5	-0.47
> O=C(c1ccc(-c2cccs2)s1)N1CCN(c2ncccc2C(F)(F)F)CC1
  nt	-0.82
> CN(C1CCCCC1)S(=O)(=O)c1ccc(Cl)c(C(=O)NCCc2ccccn2)c1
  2.5	nt
> CC1CN(C(=O)CCC(=O)NCc2ccccc2)c2ccccc2O1 (configuration not stated)
  2.3	-0.57
> OC(COC1CCCCC1)CN1CCCCC1 (configuration not stated)
  -1.3	0.24
> COc1ccc(-n2cccc2/C=C2/C(=N)N3C(c4ccccc4)=CSC3=NC2=O)cc1
  1.2	-0.49
> Cc1ccc(CN(C)C(=O)c2ccccc2OCCOc2ccccc2)o1
  -1.9	nt
> C=C1c2ccccc2NC(=S)N1Cc1ccc2c(c1)OCO2
  -1.0	nt
> OC1CCN(C(=S)Nc2ccc(Nc3ccccc3)cc2)CC1
  0.1	nt
> CCCCCCCC/C=C\C/C=C\C/C=C\CCCC(=O)NCCO
  1.8	0.0005
> COc1ccc(-c2c(C)nn3c(N4CC(C)CC(C)C4)cc(C)nc23)cc1OC (configuration not stated)
  1.8	-0.043
> Cc1c(C(=O)NCc2ccco2)oc2c1C(=O)CCC2
  4.3	-0.63
> Cc1ccsc1C=Nc1ccccc1N1CCCCC1
  -0.1	nt
> N#C/C=C(\c1ccc(F)cc1)N1CCOCC1
  0.1	nt
> Cc1ccc(Cn2c(C)c(CNCc3ccco3)c(C(=O)O)c2C)cc1
  -1.4	0.69
> C=CCn1c(SCc2cc3ccc(C)cc3nc2Cl)nnc1-c1ccoc1C
  -2.6	nt
> COc1cc(C(=O)N2CCc3ccccc32)cc(OC)c1OC
  -3.3	1.8
> COC(=O)c1cnc(N2CCCN(C(=O)NC3CCCCC3)CC2)nc1C(F)(F)F
  -1.6	0.45
> COc1ccc(CNC(=O)c2ccc(N(C)S(C)(=O)=O)cc2)cc1
  0.8	-0.85
> Cc1ccc(S(=O)(=O)Nc2ccc3c(c2)OCO3)cc1C(=O)N1CCOCC1
  -1.0	-0.57
> O=C(Nc1ccc(Cl)cc1Cl)ONC1=NCCCCC1
  0.5	nt

(continued)
smiles | Ab BasE inh | LANA-nucl inh
N#Cc1c2c(c(-c3ccccc3)[nH]c1=O)CCCC2 | nt | 2.5
Cc1ccccc1Nc1nc(N)nc(CN(C)Cc2ccc3c(c2)OCCO3)n1 | 4.5 | nt
CC1(C)CC(=O)C(Sc2ccc(Cl)cc2)=C(N2CCOCC2)C1 | 1.2 | nt
COc1cccc2c1C(=O)c1c(O)c3c(c(O)c1C2=O)C[C@@](O)(C(=O)CO)C[C@@H]3O[C@H]1C[C@H](N)[C@H](O)[C@H](C)O1 | 15 | -8.5*!
CN(Cc1ccccc1NCC(=O)NC1CCCC1)C1CCCCC1 | -0.1 | nt
O=C1CC(c2ccc(S(=O)(=O)N3CCOC(COc4ccccc4)C3)cc2)CN1 (configuration not stated) | -2.2 | 0.78
CC1=C2C(=NCCN1)C(=O)N(c1ccc(F)cc1)C2c1ccccn1 (configuration not stated) | 9.2 | -1.8
Clc1ccc2oc(-c3ccccc3)cc(=NCCN3CCOCC3)c2c1 | -0.2 | nt
Cc1c(C(=O)OC(C)C)c2cc(O)ccc2n1-c1ccccc1 | 2.4 | 0.52
COc1cc(OC)c(C(=S)N2CCN(CCO)CC2)cc1OC | -2.3 | 0.49
COc1ccccc1OCC(=O)Nn1c(=S)[nH]c2ncccc2c1=O | 14 | 2.4
COC(CNC(=O)c1ccc(-n2c(C)cc3c2CCCC3)cc1)OC | -3.3 | 1
CCN(c1ccc2oc3ccccc3c2c1)S(=O)(=O)c1ccc(C#N)cc1 | 1.6 | nt
CCN(CC)c1ccc(NC(=O)COc2ccc(C)cc2C)c(C)c1 | -0.1 | -2.6
COC(=O)C1=C(C)N(C2CCCCC2)C(=O)/C1=C\c1ccc(N(C)C)cc1 | 1.7 | -0.92
O=S(=O)(NCc1ccccc1)c1ccc(F)cc1 | 0.7 | nt
Cc1ccc(C(=O)COC(=O)C2C3CC4OC(=O)C2C4C3)cc1 (configuration not stated) | -0.8 | 0.14
CCOC(=O)C(C(=O)Nc1ccccc1)C1CCCCC1 (configuration not stated) | -0.2 | 1.9
CC1Cc2ccccc2N1C(=O)CSc1nccc(=O)[nH]1 (configuration not stated) | 1.5 | -0.2
O=C(CSc1nnc(CNc2ccc(F)cc2)o1)N1c2ccccc2Sc2ccccc21 | 0.7 | -0.9
O=c1[nH]cc(F)c(=O)[nH]1 | -0.6 | 0.21&-0.57&-0.5
Cc1c(Br)sc2sc(-c3ccnc(SCC(=O)NC(C)C)n3)c(C)c12 | 1.3 | nt
On1c(-c2cccc(C(F)(F)F)c2)nc2ncccc21 | nt | 2.3
CCOC(=O)N1CCN(C(c2ccccn2)c2cc(Cl)c3cccnc3c2O)CC1 (configuration not stated) | 1.5 | nt
CCCn1c(CSCc2ccccc2F)nc2cc(S(=O)(=O)N3CCOCC3)ccc21 | -5.4 | nt
CCCN(Cc1nnc(-c2ccccc2Cl)o1)C(=O)c1cccc(S(=O)(=O)N(C)C)c1 | -3.2 | nt
Cc1ccc(S(=O)(=O)NCC(O)Cn2c3ccccc3c3ccccc32)cc1 (configuration not stated) | 0.0 | nt
CCOC(=O)C1CCN(C(=O)CN(c2cc(Cl)ccc2OC)S(C)(=O)=O)CC1 | -1.7 | -1.3
CC1(C)C(=O)C2(C(=O)O)CCC1C2 (configuration not stated) | -0.4 | 0.73
Cn1c(=O)[nH]c(=O)c2[nH]c(Cc3ccccc3)nc21 | 7.2 | -0.28
NC(=O)CN1C(=O)C(O)(CC(=O)/C=C\c2ccccc2)c2ccccc21 (configuration not stated) | -1.7 | 3.1
FC(F)(F)c1ccc(-c2csc(-c3ccc(-c4csnn4)cc3)n2)cc1 | 0.9 | nt
COc1cc(/C=C(/Sc2nnc(-c3ccc(F)cc3)o2)C(=O)O)ccc1OC(F)F | -0.8 | nt
COC(=O)c1cccc(S(=O)(=O)N2CCCCC2)c1 | 1.9 | -0.78

A portion of the library. The share of hits here may be higher or lower than overall.
